VDR inhibitor = vitamin D3 receptor (human) inhibition | AID 504847 | Potency, µM, for inactives: max response, negative = inhibition, hits mostly inhibitors | P11473 | VDR-SRC2-3 peptide fluorescence polarization, 2 h | 0.93% of 400,000 active; active means well fitted inhibition curve with a large enough effect; inconclusive means small, poorly fitted or top-dose-only effect, or another doubt; inactive means no such curve, though single readings can be large or run the other way; further: series mostly up to about 120 µM
Target sequence (P11473 whole entry, looked up): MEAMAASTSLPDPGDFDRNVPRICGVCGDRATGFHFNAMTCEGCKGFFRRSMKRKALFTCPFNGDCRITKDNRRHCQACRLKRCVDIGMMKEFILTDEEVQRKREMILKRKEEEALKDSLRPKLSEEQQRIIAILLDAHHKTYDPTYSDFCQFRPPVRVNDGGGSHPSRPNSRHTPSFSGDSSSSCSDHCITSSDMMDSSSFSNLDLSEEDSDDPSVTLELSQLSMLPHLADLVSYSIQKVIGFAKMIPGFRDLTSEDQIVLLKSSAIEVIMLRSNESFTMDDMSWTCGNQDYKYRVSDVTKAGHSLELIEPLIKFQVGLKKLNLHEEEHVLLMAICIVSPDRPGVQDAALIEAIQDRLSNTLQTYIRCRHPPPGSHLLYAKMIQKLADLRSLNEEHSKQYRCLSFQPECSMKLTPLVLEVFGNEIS
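The screen uses fluorescence polarization to detect compounds that interfere with recruitment of the SRC2-3 coactivator peptide to VDR; plates are read after 2 h at room temperature.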
* = called active by the depositor; ? = inconclusive; & = joins results of further samples. On the % scale 0 is the no-effect control and ±100 the full control effect; potency means the concentration at half of the fitted maximal effect. Only part of the results is shown; count on the stated rates, not on these rows.

SMILES	VDR inhibitor
O=C(CNCc1ccc(Cl)cc1)Nc1ccc(C(=O)N2CCCCCC2)cc1	-8.1%
Cc1cc(CNC(=O)Cc2ccc(F)cc2)c2ccccc2n1	-1.0%
O=C(O)c1ccc2c(c1)C(=O)N(c1cccc3ccccc13)C2=O	-1.7%
Cc1ccc(/C=C/C(=O)Nc2cc(S(N)(=O)=O)ccc2O)cc1	?
CC(/C=N/N1CCN(c2ccc(C)cc2)CC1)=C\c1ccccc1	13.3%
COc1ccc(-c2cc(=O)n(CCC#N)[nH]2)cc1	-9.5%
COC(=O)c1cc(Br)c(=O)n(-c2ccc(OC)cc2)c1	28.8%
O=C(NCc1ccc(Cl)cc1Cl)C1CCN(S(=O)(=O)c2ccc3c(c2)OCCCO3)CC1	-9.3%
O=C(CSc1ccsc1[N+](=O)[O-])NCCc1ccccc1	5.6%
O=C(CN1CCC(NC(=O)C2CCCCC2)CC1)Nc1cccc(F)c1	-11.5%
CC(C)(C)CN1CCC(Oc2cccc(C(=O)N3CCC[C@H]3CO)c2)CC1	-8.6%
CS(=O)(=O)N(Cc1ccccc1)c1ccc(C(=O)Nc2ccc(C(N)=O)cc2)cc1	2.5%
O=C(COc1ccc(Cl)cc1Cl)N/N=C/c1ccc[nH]1	-7.6%
COc1ccc(CN(C)C(=O)C(Cc2ccccc2)NC(=O)c2ccccc2)c(OC)c1 (centres undefined)	-9.6%
COc1ccc(CCN2CN(S(=O)(=O)c3ccccc3)c3nc4ccccc4nc32)cc1	-10.2%
CCn1c(SCCN2CCCCC2)nnc1-c1ccc(S(=O)(=O)N2CCOCC2)cc1	6.9%
Cc1nn(-c2cc(Cl)ccc2N)c(=O)c2ccccc12	-3.7%
Cc1ccc(S(=O)(=O)N2[C@@H](c3cccc4ccccc34)C(C(=O)O)=C[C@H]2C(C)(C)C)cc1	-20.3%
CCOC(=O)CN1C(=O)SC(CC(=O)Nc2nccs2)C1=O (centres undefined)	5.0%
Cc1cc(=O)oc2cc(OCC(=O)N3CCCc4ccccc43)ccc12	6.4%
COc1ccc(Cl)cc1NC(=O)CN(C)C(=O)c1cccc(-n2cnnn2)c1	20.9%
Cn1c(=O)c2c(-c3ccccc3)n(-n3cnnc3)cc2n(C)c1=O	-2.0%
Cc1cc(C)c(S(=O)(=O)N2CCOC2CNC(=O)C(=O)NCc2ccccn2)c(C)c1 (centres undefined)	-2.2%
N#Cc1c(NC(=O)c2ccco2)sc2c1CCC2	-10.1%
CC1(C(=O)NCc2cc(F)cc(C(F)(F)F)c2)C=CC2(CCCCC2)N1C(=O)c1ccccc1 (centres undefined)	-5.6%

Continued.
SMILES	VDR inhibitor
CSC(=NS(=O)(=O)c1ccccc1)SC	4.6%
CN(C)CCN1C(=O)c2oc3ccccc3c(=O)c2C1c1cccc(Br)c1 (centres undefined)	0.1%
Cc1c(NC(=O)c2ccc(-c3ccccc3)cc2)cccc1C(=O)O	3.3%
CC(Cc1n[nH]c(=S)n1N)c1ccccc1 (centres undefined)	-6.5%
COc1cc2ncnc(NCc3ccc4c(c3)OCO4)c2cc1OC	7.6%
N#Cc1ccccc1NC(=O)CNc1ccccc1N1CCCCC1	-7.1%
COc1ccc(CNC(=O)CCc2c(C)nn(-c3ccc(N4CCCC4)nn3)c2C)c(OC)c1	4.1%
Cc1cc(Cl)c(S(=O)(=O)Nc2ccon2)cc1OCC(=O)NC1CCCCC1	8.0%
O=C(CSc1nncn2c1cc1sccc12)Nc1ccc(Br)cc1F	9.6%
CCCS(=O)(=O)c1nc(S(=O)(=O)c2ccc(C)cc2)c(N2CCCC2)s1	5.8%
CCN(C(=O)CSc1nnc(-c2c[nH]c3ccccc23)n1C1CC1)C1CCS(=O)(=O)C1 (centres undefined)	-14.2%
O=C(Nc1ccc2c(c1)C(=O)OC2)c1ccc(F)cc1F	-11.2%
Cc1cc(NC(=O)COC(=O)C2CC(=O)N(c3ccc(Br)cc3)C2)no1 (centres undefined)	15.4%
CCCc1cc(=O)n2[nH]c(C(F)(F)F)nc2n1	-6.7%
COc1ccc(OC)c(NC(=S)NCCN2CCOCC2)c1	-10.7%
C[C@H](CO)N1C[C@H](C)[C@@H](CN(C)S(=O)(=O)c2ccccc2)Oc2c(cccc2N(C)C)C1=O	1.5%
COc1ccc(N2CCN(CCCNC(=O)C3CCCN(S(=O)(=O)c4cnc[nH]4)C3)CC2)cc1 (centres undefined)	21.6%
CCOC(=O)c1c(C)n(OCc2ccccc2)c2ccc3nonc3c12	-8.5%
CN(C)C(=O)c1nc2ccc(Cl)cn2c1CN1CCCC(OCc2cccnc2)C1 (centres undefined)	7.8%
O=C(COC(=O)c1ccccc1Br)Nc1ccc(F)cc1	-16.3%
N[C@H](CS)C(=O)O	?
Cc1c(Br)c([N+](=O)[O-])nn1CC(=O)Nc1ccc(C(N)=O)cc1	-11.7%
Cc1ccc(NC(=O)COC(=O)c2ccco2)cc1C	2.7%
Cc1ccc(-c2cc(C(=O)N3CCN(c4ncccn4)CC3)c3cc(Br)ccc3n2)o1	16.3%
O=C(COC(=O)c1ccc2ccccc2c1)Nc1ncc(C(F)(F)F)cc1Cl	-8.2%

Fetched by structure from the list above:
SMILES	VDR inhibitor
CCCc1cc(=O)n2[nH]c(C(F)(F)F)nc2n1	-6.7%
COc1ccc(N2CCN(CCCNC(=O)C3CCCN(S(=O)(=O)c4cnc[nH]4)C3)CC2)cc1 (centres undefined)	21.6%
C[C@H](CO)N1C[C@H](C)[C@@H](CN(C)S(=O)(=O)c2ccccc2)Oc2c(cccc2N(C)C)C1=O	1.5%
N[C@H](CS)C(=O)O	?
Cc1cc(NC(=O)COC(=O)C2CC(=O)N(c3ccc(Br)cc3)C2)no1 (centres undefined)	15.4%
O=C(COC(=O)c1ccccc1Br)Nc1ccc(F)cc1	-16.3%
O=C(Nc1ccc2c(c1)C(=O)OC2)c1ccc(F)cc1F	-11.2%

Continuation:
SMILES	VDR inhibitor
CCc1cccc(OCC(=O)Nc2c[nH]c(=O)[nH]c2=O)c1	17.5%
C=CCn1c(=O)c(C#N)cc2c(=O)n3ccccc3nc21	11.9%
CCOC(=O)Cn1c(S(=O)(=O)Cc2ccccc2)nc2ccccc21	1.9%
Cc1ccnc(NC(=O)CCC(=O)N(CC(=O)NCc2ccccc2)Cc2ccco2)c1	3.8%
COCc1ccc(CN2CCc3c([nH]c4ccccc34)C2CC(C)C)o1 (centres undefined)	-7.1%
CN1CCN(/C=N/c2sc3c(c2C#N)CCCCC3)CC1	-9.8%
CCOc1ccc(CCNC(=O)C2CC(=O)N(C3CCCC3)C2)cc1OCC (centres undefined)	11.6%
CCOc1ccc(C(=O)c2nc3c(n2O)CCCC3)cc1	20.3%
Cc1c(CCO)c(=O)[nH]n1C(=O)c1ccc(F)cc1	4.9%
CCC(C)(C(=O)NC1CCCCC1)N(Cc1cccs1)C(=O)c1ccc(=O)[nH]c1 (centres undefined)	-6.1%
CCOc1ccc(CN2CCC(n3nccc3NC(=O)C3CC3)CC2)cc1CO	2.5%
COc1ccc(NC(=O)C(=O)NCC(c2cccnc2)N2CCc3ccccc32)cc1OC (centres undefined)	-2.1%
Cc1nc(C)c(C(=O)OCC(=O)Nc2ccccc2)s1	-4.0%
N#C/C(=C\c1ccco1)C(=O)Nn1cnnc1	-6.2%
O=C(CCCn1c(=O)c2cccn2c2cccnc21)NCCc1ccc(Cl)cc1	8.6%&5.6%
O=C(COc1cccc2ccccc12)NNC(=O)[C@@H]1CCCC[C@@H]1C(=O)O	4.8%
CCOC(=O)c1ccccc1NC(=O)c1cnc(N2CCOCC2)c2ccccc12	8.4%
CC1CCN(C(=O)c2ccc(CNc3c(N4CCCC4)c(=O)c3=O)cc2)CC1	-0.2%
COc1ccccc1OCCOc1ccc(/C=C2\C(=N)N3N=C(S(C)(=O)=O)SC3=NC2=O)cc1	79.4µM*
O=C(COC(=O)C1CCN(C(=O)c2ccc(Cl)cc2)CC1)c1ccco1	1.0%
CCC(C)(C)N1CC(=O)N(Cc2ccccc2)C(c2ccc(OC)cc2)C1=O (centres undefined)	9.6%
Cc1nc2ccccc2c2oc(C(=O)NCCN3CCN(C)CC3)cc12	-18.0%
COc1ccc(-c2noc(CCCc3ccccc3)n2)cc1OC	17.5%
CCOCc1cc(CN2CCN(c3ccccc3OC)CC2)c(O)c2ncccc12	5.3%
CCOc1ccc(C2C(=O)N(C3CCCCC3)CC(=O)N2C2CCCC2)cc1OC (centres undefined)	5.6%

Next part:
SMILES	VDR inhibitor
CN(C(=O)COC(=O)c1ccc2ccccc2n1)C1CCCCC1	-8.8%
Cc1noc(C(=O)Nc2cc(Cl)ccc2O)c1Cl	-2.1%
Cc1cc2[nH]c(=O)c(=O)[nH]c2cc1S(=O)(=O)N1CCN(c2cccc(C(F)(F)F)c2)CC1	-16.6%&18.3%
CC1=C(C(=O)Nc2ccc(C(=O)N3CCN(c4ccccc4F)CC3)cc2)SCCO1	-11.0%
O=C(CN1CCN(C(C(=O)Nc2ccc(Cl)cc2C(F)(F)F)c2ccccc2)CC1)NC1CC1 (centres undefined)	8.8%
Cc1c(CC(=O)O)c(=O)oc2c(C)c3occ(-c4ccc(F)cc4)c3cc12	-1.7%
O=C(NCc1ccco1)c1cc(=O)c2ccccc2o1	6.9%
O=C(Cn1ccc([N+](=O)[O-])n1)NCc1cccnc1	-1.3%
CSc1ccc(CCNC(=O)c2cc3c(-c4ccccc4F)nn(C)c3s2)cc1	-19.3%
O=C(N/N=C/c1cc(Br)cc(Br)c1O)c1cccc(N2CCCC2=O)c1	13.3%
O=C(NC1CCCCC1)C(c1ccc(Cl)cc1)N(C(=O)c1cnccn1)c1ccc2c(c1)OCO2 (centres undefined)	9.0%
Nc1ccc(O)c([N+](=O)[O-])c1	3.8%
CNC(=O)c1c(NC(=O)/C=C/c2ccccc2Cl)sc2c1CCC2	-3.8%
CCOc1ccccc1NC(=O)N1CC(CC)Oc2ccccc21 (centres undefined)	-4.0%
NS(=O)(=O)c1ccc(NC(=O)CCC(=O)c2cccs2)cc1	3.0%
O=C(OCCc1cc2ccccc2c(=O)o1)N1CCOCC1	10.0%
CCOC(=O)N1CCN(C(=O)CS(=O)(=O)Cc2nc(-c3ccccc3C)oc2C)CC1	?
O=C(Nc1ccc(F)cc1)N(CCCN1CCOCC1)Cc1cc2cc3c(cc2[nH]c1=O)OCCO3	-19.4%
OC[C@H]1O[C@@H](Oc2ccc3cc(Br)ccc3c2)[C@H](O)[C@@H](O)[C@H]1O	-6.8%
O=C(Nc1nnc(-c2ccc(Cl)cc2)o1)C1=COCCO1	9.7%
CC(Sc1ccc(Cl)cc1)C(=O)NCC(c1ccco1)N1CCCCC1 (centres undefined)	-12.4%
CCOP(=O)(OCC)c1nc(-c2ccc(C)cc2)oc1NCc1ccccc1	0.6%
Oc1ccc(Cl)cc1-c1cc(C(F)(F)C(F)F)nc(-c2ccccc2)n1	6.8%
O=C(OC(C(=O)NC1CCCC1)c1cccnc1)C1=Cc2ccccc2OC1 (centres undefined)	-7.2%
O=C(NNc1nc2ccc(F)cc2s1)c1cccc(F)c1	0.6%

(listing goes on)
SMILES	VDR inhibitor
CCC(=O)NCCNc1nc2cc(C)cc(C)c2cc1C#N	2.7%
CCCCCn1c(-c2cccc(C)c2)nc2ccccc21	13.6%
Cc1cc(C(=O)COC(=O)C2=COCCO2)c(C)n1-c1cccc(F)c1	2.6%
CS/C(=N\S(=O)(=O)c1cccs1)Nc1ccc(N2CCOCC2)cc1	6.9%
CC(c1ccco1)N(C(=O)c1ccc(Cl)s1)c1ccccn1 (centres undefined)	7.3%
N#Cc1ccccc1OCC(=O)NNC(=O)c1ccncc1	-7.8%
O=C(NC1CCCCC1)NC1CCN(S(=O)(=O)Cc2ccccc2)CC1	-18.9%
COc1ccc(OCCC(=O)OCC(=O)Nc2ccc(S(=O)(=O)N3CCOCC3)cc2)cc1	-12.6%
CC(=O)c1cccc(NC(=O)N2CCCC2C(=O)NCc2ccc3c(c2)OCO3)c1 (centres undefined)	8.6%
Cc1oc(-c2ccc(C(=O)Nc3ccccc3F)cc2)nc1COc1ccccc1	9.4%
O=C1NNC(c2ccccc2)=N/C1=C\c1ccccc1	?
Cc1ccc(-n2nnnc2SCC#N)cc1	-7.5%
COc1ccccc1NC(=O)CCC(=O)OCc1cccc([N+](=O)[O-])c1	-11.6%
O=C(NNS(=O)(=O)c1ccccc1C(F)(F)F)c1cc2ncc(C(F)(F)F)cc2s1	4.5%
O=C(NCCN1CCOCC1)c1ccc(NS(=O)(=O)c2ccccc2)cc1	-21.1%
O=C(c1cccc(N2C(=O)C3C4C=CC(C4)C3C2=O)c1)N1CCCc2ccccc21 (centres undefined)	-7.3%
COC(=O)c1sccc1NC(=S)Nc1ccccc1	20.2%
Cc1ccc(Sc2nc(-c3ccccc3)nnc2C(F)(F)F)cc1	4.1%
O=C(/C=C/c1cccc([N+](=O)[O-])c1)Nc1ccccn1	11.5%
N#Cc1ccc(Oc2c(Cl)cncc2Cl)cc1	6.9%
Cc1ccc(Cn2c(N)nc3ccccc32)cc1	25.8%
COc1ccc(Cc2nnc(NC(=O)c3ccc(OC)c(OC)c3)s2)cc1	5.2%
CSc1nc(-c2ccccc2)nc(N2CCCC2)c1C(C)=O	-0.3%
COc1ccc(/C=C2/NC(=O)CNC2=O)cc1	5.6%
Cc1cc(-c2ccc(S(=O)(=O)N3CCc4ccccc4C3)s2)on1	26.1%
CC1(C)C[C@@H]2C[C@@](C)(CN2C(=O)c2cc(COc3cccc(C(F)(F)F)c3)on2)C1	6.3%
CCCC/C(C)=N/NC(=O)CN(c1ccc(Br)cc1)S(=O)(=O)c1ccccc1	-6.0%
CCOC(=O)c1c(C)n(-c2ccc(OC)cc2)c2c(C/C(C)=N/O)c(Br)c(OC)c(O)c12	15.9%
Cc1cc(NC(=O)C(C)SCC(=O)OCC(=O)Nc2c(C)cccc2C(C)C)no1 (centres undefined)	-11.0%

2 of these compounds in another layout:
structure,VDR inhibitor
O=C(c1cccc(N2C(=O)C3C4C=CC(C4)C3C2=O)c1)N1CCCc2ccccc21 (centres undefined),-7.3%
COC(=O)c1sccc1NC(=S)Nc1ccccc1,20.2%

Source: PubChem BioAssay (National Center for Advancing Translational Sciences (NCATS))
